VDR inhibitor = inhibitors of human vitamin D receptor. AID 504847. 400,000 tested, 0.93% active. VDR-SRC2-3 peptide fluorescence polarization, 2 h. P11473. Potency, µM, for the others: max response, negative = inhibition, most hits filed as inhibitors; active means well fitted inhibition curve with a large enough effect; inconclusive means small, poorly fitted or top-dose-only effect, or another doubt; inactive means no such curve, though single readings can be large or run the other way; further: series mostly up to about 120 µM
Target sequence (P11473 whole entry, looked up): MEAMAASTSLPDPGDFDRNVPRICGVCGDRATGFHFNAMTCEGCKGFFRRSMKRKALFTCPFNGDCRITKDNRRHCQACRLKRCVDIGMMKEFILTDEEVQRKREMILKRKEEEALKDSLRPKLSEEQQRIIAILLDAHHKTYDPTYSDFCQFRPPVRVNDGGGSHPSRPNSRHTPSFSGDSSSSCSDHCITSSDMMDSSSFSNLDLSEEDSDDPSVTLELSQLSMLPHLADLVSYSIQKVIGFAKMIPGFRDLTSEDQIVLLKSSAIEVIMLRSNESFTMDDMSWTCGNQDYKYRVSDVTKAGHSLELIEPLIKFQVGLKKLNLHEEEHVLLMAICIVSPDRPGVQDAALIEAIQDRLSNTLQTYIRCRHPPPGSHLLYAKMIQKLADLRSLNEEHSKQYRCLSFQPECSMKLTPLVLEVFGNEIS
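Inhibition of the VDR/SRC2-3 peptide interaction is quantified by fluorescence polarization. Compounds (23 nl, pintool) incubate with the reagents for 2 hours at ambient room temperature.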
Starred values were filed as active, the others as inactive; ? = inconclusive; & = joins results of further samples. On the % scale 0 is the no-effect control and ±100 the full control effect; potency means the concentration at half of the fitted maximal effect. This is a subset; the hit share may differ from the screen's.

SMILES	VDR inhibitor
O=C(COC(=O)C1CCCCC1)Nc1ccccc1OC(F)F	?
Cc1ccc(CS(=O)(=O)c2ncc(Cl)c(C(=O)Nc3nc4ccc(F)cc4s3)n2)cc1	-8.6%
COc1ccc(C(C(=O)NC2CCCC2)N(CCO)C(=O)Cn2nnc(-c3ccc(C)o3)n2)cc1OC (centres undefined)	-11.5%
CCCCCC(=O)Nc1nc(C)c(-c2csc(Nc3cc(Cl)ccc3OC)n2)s1	3.1%
O=C(CCC(=O)N(CC(=O)NC1CCCCC1)c1ccccc1F)Nc1nccs1	-13.9%
CCCCc1ccc(C(=O)Nc2ccc3nc(N(CC)CC)cc(C)c3c2)cc1	-1.3%
O=C(CNC(=S)N(Cc1ccccc1F)C1CCCCC1)NCC1CCCO1 (centres undefined)	14.2%
COc1ccc(CCNc2oc(COc3ccccc3F)nc2C#N)cc1OC	-15.0%
CC(C)c1ccc(C(=O)NCCCN(C)C)cc1	5.9%
O=C(NNS(=O)(=O)c1ccccc1)C1CC(c2cccnc2)=NO1 (centres undefined)	-25.0%
COc1ccc(S(=O)(=O)NCCS(=O)(=O)N2CCN(c3ccccc3)CC2)cc1OC	11.5%
Cc1ccc2nsnc2c1S(=O)(=O)NCc1cccnc1	9.4%
COc1ccccc1NC(=O)c1ccc(S(=O)(=O)NCc2ccco2)cc1	8.3%
O=C(Nc1cc(SCCO)cc([N+](=O)[O-])c1)c1ccco1	-9.8%
CC(=O)C1=C(O)C(=O)N(c2ccc(S(=O)(=O)Nc3nccs3)cc2)C1c1ccc([N+](=O)[O-])cc1 (centres undefined)	2.3%
CCCCCCCCCCOC(=O)Cn1c(COc2ccc(C)cc2)[n+](C)c2ccccc21	4.6%
Cc1ccc(OCCCn2c(C3CC(=O)N(c4cccc(Cl)c4)C3)nc3ccccc32)c(C)c1 (centres undefined)	8.2%
COc1ccc(C2C(C(=O)NCCN(C)C)c3ccccc3C(=O)N2C)cc1OC (centres undefined)	-5.9%
CCOc1ccc(N=C/C=C/c2ccccc2)c(O)c1	?
CC(C)CN(C(=O)CCC(=O)OCc1ccc(Cl)cc1Cl)c1c(N)n(CC(C)C)c(=O)[nH]c1=O	5.2%
CN(Cc1cnn(C)c1)C(=O)c1cc2ccccc2oc1=O	9.3%
CCC1(c2ccc(F)cc2)NC(=O)N(CC(=O)NC2CCCC(C)C2C)C1=O (centres undefined)	?
Cc1ccn(CC(=O)N2CCCC(N3CCN(Cc4ccc5c(c4)OCO5)CC3)C2)n1 (centres undefined)	-2.3%
Cc1ccccc1CNC(=O)CN1C(=O)CSc2ccc(S(=O)(=O)N(C)C)cc21	13.8%
O=C(CCCN1C(=O)/C(=C\c2ccco2)SC1=S)Nc1cccc2ccccc12	3.8%
Cc1ccc(Cl)cc1NC(=O)CCC(=O)N1CC(C)Sc2ccccc21 (centres undefined)	-5.7%
N#Cc1ccc(OC(=O)C2CCN(C3=NS(=O)(=O)c4ccccc43)CC2)cc1	-14.8%
O=C(Nc1cc(Cl)cc(Cl)c1)c1ccno1	-1.6%
COc1ccc(N2CC(C(=O)N3CCc4ccccc43)CC2=O)cc1 (centres undefined)	1.3%
Cc1cc(F)c(F)c(C(=O)N2CCN(C)CC2)c1Cl	-1.2%
Cc1ccc(OCCC(=O)OCC(=O)NC2CCS(=O)(=O)C2)cc1 (centres undefined)	0.2%
CCCn1c(SCC(=O)Nc2sc(C)c(C)c2C#N)nnc1C(C)C	2.0%
NC1=NC2(CCCCC2)N(c2ccc(F)cc2)C(N)=N1	7.0%
CCOC(=O)Nc1cc2c(cc1[N+](=O)[O-])-c1ccccc1C2=O	-20.3%
CC(OC(=O)[C@@H](NC(=O)c1ccco1)C(C)C)C(=O)Nc1ncc(Cl)cc1Cl (some centres undefined)	-18.0%
COc1ccc(C(=O)C2CCCN(Cc3cn(C)nc3-c3ccccc3)C2)cc1F (centres undefined)	-8.2%
CCOC(=O)CNC(=O)Cn1cnc2c(oc3ccccc32)c1=O	8.9%
COc1ccc(-c2csc3ncnc(Nc4ccc(O)cc4)c23)cc1	?
C#CCOCCOCCOCCNc1nc(N2CCN(C(=O)Cn3cc(CCCN=C(N)N)nn3)CC2)nc(N2CCN(C(=O)[C@H](C)n3cc(CCCN=C(N)N)nn3)CC2)n1	-10.1%
COc1cc(NC(=O)CSc2nc3ncccc3o2)cc(OC)c1	-1.8%
CCOC(=O)C1=C(C)NC(=S)N(C(C)=O)C1c1ccc(OC)c(OC)c1 (centres undefined)	-1.1%
CC1(C)Cc2nc(NC3CCCCC3)c(C#N)cc2CO1	-10.4%
CCCCn1c(N)c(N(CC(C)C)C(=O)c2ccc(-c3ccc(Cl)cc3)o2)c(=O)[nH]c1=O	-12.0%
CCn1nc(C(=O)NNC(=O)C2CSC3(C)CCC(=O)N23)c2ccccc2c1=O (centres undefined)	-3.4%
COc1cccc(OC)c1NC(=O)C1CCCN1C(=O)Nc1ccccc1Cl (centres undefined)	-18.7%
COc1ccc(C(=O)N/C(=C/c2cccnc2)C(=O)N2CCCCCC2)cc1OC	11.4%
CCOC(=O)C1C(=O)OC(C)(C)C1C(CC)C(=O)c1ccccc1 (centres undefined)	-5.0%
Cc1cccc(-n2c3nc(=O)n(C)c(=O)c-3cc3c(Cl)cccc32)c1C	-11.5%
Cc1nc2scc(-c3ccccc3)c2c(=O)o1	-8.3%
O=C(Nc1cccc(C(=O)Nc2ccccc2F)c1)c1ccccc1	16.6%
CN1CCN(S(=O)(=O)c2ccc3c(c2)oc(=O)n3C)CC1	-14.8%
Cc1scc(-c2n[nH]c(=S)n2Cc2ccccc2)c1C	-5.4%
Oc1ccc(/C=N/Nc2ccccc2)cc1	-15.5%
Cc1cc(CN(C)C(=O)C2CCC(=O)N(CCc3ccccc3)C2)n[nH]1 (centres undefined)	-13.3%
COc1ccc([N+](=O)[O-])cc1NS(=O)(=O)c1cccc(C(=O)NCCCN2CCCC2=O)c1	-5.4%
CCOC(=O)Cc1nnc(NC(=O)c2ccccc2OC)s1	13.0%
CCCc1cc(=O)oc2cc(OCC(=O)NC(Cc3ccc(Cl)cc3)C(=O)O)ccc12 (centres undefined)	1.3%
COc1ccc(OC)c(NC(=O)CN(C)CC(=O)Nc2ccccc2Cl)c1	7.5%
Cc1cc(=O)[nH]c(N/N=C/c2c(C)nn(-c3ccccc3)c2C)n1	-7.0%
Cc1ccccc1-n1c(C)cc(/C=C(\C#N)C(=O)NCC2CCCO2)c1C (centres undefined)	9.0%

(cont.)
SMILES	VDR inhibitor
O=c1[nH]nc(-c2ccc(NCCO)c([N+](=O)[O-])c2)c2ccccc12	1.2%
CCOC(=O)c1nn(-c2ccccc2)c(=O)c2c(NC(C)=O)scc12	-6.8%
CCCCOc1ccc(-n2nc(C)cc2C)nn1	10.1%
CCOC(=O)C1=C(CN2CCN(C(=O)c3ccco3)CC2)NC(=O)NC1c1ccc(F)cc1 (centres undefined)	-4.3%
Cc1c(OC(C)C(=O)NCC(O)c2ccccc2)ccc2c3c(c(=O)oc12)CCC3 (centres undefined)	7.7%
COc1ccccc1CNc1ccccc1F	12.0%
COCC(=O)NCCc1nc2ccccc2[nH]1	12.9%
CC1(C)O[C@@H]2C[C@H]3[C@@H]4CCC5=CC(=O)CC[C@]5(C)[C@@]4(F)[C@@H](O)C[C@]3(C)[C@]2(C(=O)CCl)O1	-6.1%
CCOc1ccc(NC(=O)C2CCN(S(=O)(=O)c3ccc4c(c3)C(C)(C)C(=O)N4C)CC2)cc1	-3.4%
Cc1noc(C)c1C(=O)Nc1ccc2c(c1)CCC2	11.4%
Cn1nc(C(=O)NNC(=O)c2cccc(Cl)c2)c2ccccc2c1=O	1.1%
CC(C)(C)C(=O)N1CCN(c2nc3c(F)cccc3s2)CC1	1.2%
COc1cccc(C(=O)c2sc(Nc3ccc(C)cc3C)c(S(=O)(=O)c3ccccc3)c2N)c1	16.9%
COc1ccc(/C=C(\NC(=O)c2ccccc2)C(=O)N2CCN(C)CC2)cc1OC	-13.7%
COc1ccccc1CNC(=O)Cn1ncc2c(C)n(Cc3ccccc3Cl)c(C)c2c1=O	4.8%
O=C(/C=C/c1cccs1)NC1CCCC1	1.4%
O=C(OC(C(=O)NC1CCCCC1)c1ccccc1F)c1ccco1 (centres undefined)	7.0%
CCc1ccc(S(=O)(=O)Nc2ccc(N3CCN(C)CC3)cc2)cc1	4.6%
COc1ccc(NS(=O)(=O)c2ccc(C(=O)N3CCC(C)CC3)cc2)cc1	6.4%
NC1=NC(=Nc2ccc(S(N)(=O)=O)cc2)c2ccccc21	?

Given field by field: part of the list above.
COc1ccccc1CNC(=O)Cn1ncc2c(C)n(Cc3ccccc3Cl)c(C)c2c1=O
  VDR inhibitor: 4.8%

O=C(/C=C/c1cccs1)NC1CCCC1
  VDR inhibitor: 1.4%

Next part:
SMILES	VDR inhibitor
O=C(COC(=O)CNC(=O)c1ccccc1)Nc1ccc(S(=O)(=O)N2CCCC2)cc1	4.2%
CCOc1ccc(NC(=O)Cn2c(=O)n(Cc3ccc(C(=O)NCc4ccc5c(c4)OCO5)cc3)c(=O)c3ccccc32)cc1	-13.1%
O=C(NCc1cc(C(F)(F)F)cc(C(F)(F)F)c1)C1CC(c2ccccc2[N+](=O)[O-])=NO1 (centres undefined)	4.6%
O=C(COc1ccccc1Cl)Nc1ccc(C(=O)N2CCCCC2)cc1	-0.7%
COc1ccc(/C=N/NC(=O)CNC(=O)c2ccc(S(=O)(=O)N3CCOCC3)cc2)cc1OC	-6.4%
COC(=O)c1ccccc1NC(=O)CN1C(=O)COc2ccccc21	-11.6%
Cc1cccc(NC(=O)CN2C(=O)c3cccc4cccc2c34)c1C	-8.2%
Fc1ccc([C@H]2CCNCC2COc2ccc3c(c2)OCO3)cc1 (some centres undefined)	0.3%
Cc1cc(NC(=O)CN(C)CC(=O)Nc2ccc(Cl)cc2)no1	1.6%
CCC(C)NC(=O)CC(C)C (centres undefined)	-3.7%
CCOC(=O)Cc1csc(NC(=O)CC(C)(C)C)n1	?
O=C(COc1ccc(S(=O)(=O)N2CCCC2)cc1Cl)NCc1ccccn1	-6.6%
Cc1nnc(SCc2cccc(CSc3nnc(C)s3)c2)s1	-8.7%
COc1ccc(NC(=O)CN2CCN(Cc3ccccc3Cl)S2(=O)=O)cc1Cl	-10.9%
N#Cc1ccc(C(=O)Nc2cc(S(=O)(=O)N3CCOCC3)ccc2N2CCCC2)cc1	12.2%
CC(C)N1CCN(Cc2ccsc2)CC1CCO (centres undefined)	4.2%
Cc1cc(C)cc(OC(=O)c2cccnc2)c1	-14.3%
CC1CCCCN1S(=O)(=O)c1ccc2c(c1)oc(=O)n2CC(=O)O (centres undefined)	-2.4%
COc1ccc(C(=S)NC2CCCCC2)cc1	89.1µM*
COc1ccc(CN(C)CC(=O)NC2CCCc3ccccc32)cc1OC (centres undefined)	4.9%
C/C(CC(=O)Nc1ccccn1)=N\NC(=O)C(=O)Nc1cccc(Cl)c1C	8.0%
Cn1c(=O)c2cc(S(=O)(=O)NCCC(=O)Nc3ccccc3F)ccc2n(C)c1=O	12.0%
Cc1cc(-n2cc(Br)c(=O)[nH]c2=O)nc(-c2ccccc2)n1	-9.6%
O=C(Cc1c(F)cccc1Cl)N1CCN(S(=O)(=O)c2cccs2)CC1	1.5%
C=C1CC[C@H](O)C/C1=C/C=C1\CCC[C@]2(C)[C@@H]([C@H](C)CC[C@@H](O)C(C)(C)O)CC[C@@H]12	-12.4%&-5.1%
CN(C(=O)COC(=O)c1ccc([N+](=O)[O-])cc1N)c1ccccc1	9.8%
CC(C)CC(=O)c1c[nH]c(C(=O)NCc2ccccc2)c1	-0.9%
C=CCN1C(=O)/C(=C/c2ccc(O)c(OC)c2)S/C1=N/c1nccs1	17.9%
COc1ccc(CC(=O)N/N=C(/C)CC(=O)N(C)c2ccccc2)cc1	5.7%
Cc1occc1-c1nnc(SCC(=O)Nc2ccccc2)n1C	15.4%
Cc1cc(NC(=O)CCS(=O)(=O)c2cc(Br)cc3c2N(C(=O)C2CC2)CC3)ccc1Br	5.2%
COc1cc(OC)cc(C(=O)Nc2cccc3cccnc23)c1	-5.6%
Cc1cc2nc(-c3cccc(NC(=O)c4ccc(Br)o4)c3)oc2cc1C	13.5%
COC(=O)c1sc(N2C(=O)c3oc4ccccc4c(=O)c3C2c2cccc(O)c2)nc1C (centres undefined)	4.3%
Cc1cc([N+](=O)[O-])nn1Cc1ccc(C(=O)N/N=C/c2ccc(O)cc2O)cc1	-12.5%
O=C(O)CCNc1nc(C(F)(F)F)nc2ccccc12	12.2%
O=C(NCc1ccco1)C1CC(=O)N(c2ccc(O)cc2)C1 (centres undefined)	-18.9%
COc1cccc(CNc2ccc3[nH]c(=O)[nH]c3c2)c1OCc1ccccc1	-15.0%
O=C(NCc1ccccc1)N1CCN(c2ccccc2)CC1	13.2%
COCCn1c(SCC#N)nnc1-c1ccc2c(c1)OCO2	10.5%
CCC(C)c1ccc(O)c(NC(=O)c2ncn[nH]2)c1 (centres undefined)	-1.4%
O=C(c1cc([N+](=O)[O-])ccc1N1CCCC1)N1CCCCC1	15.8%
O=C(CSc1nnc(-c2cccnc2)n1-c1ccccc1)Nc1ccccn1	-18.5%

Some of the entries so far, with each value named.
> COc1cc(OC)cc(C(=O)Nc2cccc3cccnc23)c1
  VDR inhibitor = -5.6%

> Cc1cc2nc(-c3cccc(NC(=O)c4ccc(Br)o4)c3)oc2cc1C
  VDR inhibitor = 13.5%

> COC(=O)c1sc(N2C(=O)c3oc4ccccc4c(=O)c3C2c2cccc(O)c2)nc1C (centres undefined)
  VDR inhibitor = 4.3%

> Cc1cc([N+](=O)[O-])nn1Cc1ccc(C(=O)N/N=C/c2ccc(O)cc2O)cc1
  VDR inhibitor = -12.5%

Assay outcomes: PubChem, National Center for Advancing Translational Sciences (NCATS)
